Compound activity from PubChem.
HSV replic up: enhancers of HSV replication in host cells, fold increase, host cell viability; HSV replication augmentation in cells; maximum fold increase; actives 0.005% (n = 220,000);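 active = peak rise of 1.5-fold or more in the series; tested in PC3 cells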;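 also: first round at 10 µM; read as green reporter fluorescence; hits show the peak of a series up to 25 µM; 1 = signal of infected wells without compound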
GALR2 agonist: GALR2 receptor agonists, primary screen, cell-based | Galanin receptor type 2 (Homo sapiens), O43603 | GALR2-expressing cells, agonist activation read-out | activation, %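 (tested at 5 µM)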 | actives 0.48% (n = 140,000);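 active = above mean plus 3 SD of all compounds, about 5% in these data, not always enough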;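 also: 0% = vehicle buffer wells and 100% = reference agonist at full effect; tested in CHO reporter cells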
Target sequence (O43603 whole entry, looked up): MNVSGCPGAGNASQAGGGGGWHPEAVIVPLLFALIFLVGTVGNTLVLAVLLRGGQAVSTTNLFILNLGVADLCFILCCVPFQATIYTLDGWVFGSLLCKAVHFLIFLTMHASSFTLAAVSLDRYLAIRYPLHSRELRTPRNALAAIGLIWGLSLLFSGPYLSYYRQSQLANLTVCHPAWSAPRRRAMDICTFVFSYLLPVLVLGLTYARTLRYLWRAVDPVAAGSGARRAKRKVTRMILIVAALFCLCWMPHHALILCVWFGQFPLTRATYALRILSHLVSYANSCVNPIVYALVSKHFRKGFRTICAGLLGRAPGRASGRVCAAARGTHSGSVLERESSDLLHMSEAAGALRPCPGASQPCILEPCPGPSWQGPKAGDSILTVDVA
RGS16-Gao HTS: modulators of RGS16 binding to Galphao, primary screen, biochemical, human proteins, multiplexed bead flow cytometry | bead-based flow cytometry RGS16-Galphao binding, fluorescence; actives lie on both sides | binding response (% of control), % at 10 µM | actives 0.38% (n = 220,000);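 active = below 25% or above 175%, edge rows of some plates excepted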;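 also: Galphao activated by GDP with aluminum fluoride before binding; 100% = wells without compound and 0% = beads without RGS; some results beyond the cut were filed as inactive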
Target sequence (O15492 whole entry, looked up): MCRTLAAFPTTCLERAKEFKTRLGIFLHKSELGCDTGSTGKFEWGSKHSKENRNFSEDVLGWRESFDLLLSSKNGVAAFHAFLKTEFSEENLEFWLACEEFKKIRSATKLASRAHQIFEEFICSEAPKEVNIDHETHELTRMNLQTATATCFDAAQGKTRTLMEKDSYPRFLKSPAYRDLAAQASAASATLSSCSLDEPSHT
Target sequence (P09471 whole entry, looked up): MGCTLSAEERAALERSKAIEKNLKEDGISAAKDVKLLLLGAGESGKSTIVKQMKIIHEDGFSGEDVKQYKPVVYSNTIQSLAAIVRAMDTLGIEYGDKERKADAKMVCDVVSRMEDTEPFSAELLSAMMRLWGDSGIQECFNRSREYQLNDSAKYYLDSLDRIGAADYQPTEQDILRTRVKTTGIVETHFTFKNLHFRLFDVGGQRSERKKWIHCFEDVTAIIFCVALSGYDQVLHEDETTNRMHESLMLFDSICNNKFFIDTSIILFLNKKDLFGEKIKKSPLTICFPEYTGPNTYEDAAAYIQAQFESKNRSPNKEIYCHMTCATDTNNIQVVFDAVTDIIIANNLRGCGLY
PKD1 inh: inhibitors of human PKD1 kinase, biochemical, fluorescence polarization. Serine/threonine-protein kinase D1 (Homo sapiens), Q15139. PKD1 kinase fluorescence polarization assay. inhibition, %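 (about 10 µM by stock and volumes)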. actives 0.056% (n = 200,000);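 active = inhibition of 50% or more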;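 also: controls were vehicle for no effect and a reference inhibitor for full effect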
INS promoter inh: inhibitors of insulin promoter-driven GFP, primary screen, imaging, TRM-6 cells (human fetal islet line), eGFP reporter, cell count | inhibition, % at 2 µM | reporter expression induced with tamoxifen | actives 0.9% (n = 130,000);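 active = inhibition above the mean plus 3 SD, with well images judged a real hit on visual review, cut at about 60% in these data, passing the limit was not always enough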
INS promoter inh cell count: recorded beside INS promoter inh, whose call it bears; normalized cell count, %; measured here: cell count, toxicity; reference of the scale not given here;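 cells exposed to compound for 48 h; stained nuclei by imaging scaled within each plate; lower means fewer cells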
HSV replic up primary fold: also measured in HSV replic up; calls as there; fold increase; compound at 10 µM; measured here: primary screen fold increase 10 uM; tested in PC3 cells;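 GFP signal in the first replicate; 1 = infected wells without compound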
The depositor's hits bear a star; i = inactive; · = no result given.

Start of the data: the first five records as a preview:
SMILES	HSV replic up	HSV replic up primary fold	GALR2 agonist	RGS16-Gao HTS	PKD1 inh	INS promoter inh	INS promoter inh cell count
CC1C/C(=C/c2ccccn2)C(=O)/C(=C/c2ccccn2)C1 (centres undefined)	i	0.59	·	99.4	15.1	·	·
CN(C)/C=N/c1cc(=O)n(Cc2ccccc2)c(=O)n1C	i	0.82	-0.8	99.0	-5.2	45.0	113.6
Cc1ccc(NC(=O)c2c(C(=O)Nc3ccccc3)sc3nc(C)cc(=O)n23)cc1	i	0.97	·	96.8	-5.9	·	·
CN(C)CCCOc1cccc(Cl)c1	i	0.9	-1.0	109.6	-12.7	57.1	105.7
O=C(CN1CCC(n2nnc3cc(C(F)(F)F)ccc32)CC1)NCc1cccs1	·	·	-0.8	99.2	1.0	0.0	124.0

The list itself, repeating the preview:
SMILES	HSV replic up	HSV replic up primary fold	GALR2 agonist	RGS16-Gao HTS	PKD1 inh	INS promoter inh	INS promoter inh cell count
CC1C/C(=C/c2ccccn2)C(=O)/C(=C/c2ccccn2)C1 (centres undefined)	i	0.59	·	99.4	15.1	·	·
CN(C)/C=N/c1cc(=O)n(Cc2ccccc2)c(=O)n1C	i	0.82	-0.8	99.0	-5.2	45.0	113.6
Cc1ccc(NC(=O)c2c(C(=O)Nc3ccccc3)sc3nc(C)cc(=O)n23)cc1	i	0.97	·	96.8	-5.9	·	·
CN(C)CCCOc1cccc(Cl)c1	i	0.9	-1.0	109.6	-12.7	57.1	105.7
O=C(CN1CCC(n2nnc3cc(C(F)(F)F)ccc32)CC1)NCc1cccs1	·	·	-0.8	99.2	1.0	0.0	124.0
CCOc1ccc(Nc2cc(C)nc3nc(C)nn23)cc1	·	·	-0.6	101.6	2.3	-15.0	69.6
O=C(/C=C/c1ccccc1)NCC(=O)N/N=C\c1cccnc1	i	0.93	-0.9	124.3	-5.5	17.1	142.9
COc1ccc(NC(=O)c2sccc2OS(=O)(=O)N(C)C)cc1	i	0.79	·	101.2	-3.0	·	·
Fc1ccccc1-c1nc2ccccc2[nH]1	i	0.94	·	104.1	-3.4	·	·
O=C1c2ccccc2NC(c2ccc(-c3ccc(Br)cc3)o2)N1O (centres undefined)	i	0.69	-0.1	88.1	2.4	-11.1	148.2
O=c1oc(-c2cccs2)nc2ccc(Br)cc12	i	0.97	-0.4	103.3	-6.8	-2.9	176.1
Cc1cc2nc(-c3cccnc3SCC(=O)NCc3ccco3)[nH]c2cc1C	i	0.99	-0.7	106.1	0.6	-77.8	55.3
COc1ccc(CCNC(=O)C2CCN(S(=O)(=O)c3cc(OC)ccc3OC)CC2)cc1	i	1.05	-1.0	100.0	-5.8	-74.2	184.0
COc1ccc(NC(=O)c2cc(C)n(Cc3cccs3)c2C)cc1	i	0.88	·	98.8	·	·	·
Cc1ccc(CNC(=O)c2ccc3nc4[nH]c5ccccc5c4nc3c2)cc1	i	0.58	13.9*	102.0	7.2	-26.7	57.8
O=C(NC1CCCCCC1)C1CCN(C(=O)Cc2ccccc2)CC1	i	0.93	-0.3	108.9	-3.0	·	·
c1ccc(C2=Nc3ccccc3OC2)cc1	i	0.987	-1.4	102.8	-6.7	-4.2	123.8
Cc1ccc(S(=O)(=O)Nc2cc(=O)[nH]c(SCc3ccc(Cl)cc3)n2)cc1	i	0.95	0.1	94.3	2.2	-16.0	93.3
CC(C)Oc1c(Cl)cc(CNC(C)(C)CO)cc1Cl	i	0.68	-2.6	100.8	-9.0	-92.6	117.8
COc1cccc(CC2(CO)CCN(S(=O)(=O)N(C)C)CC2)c1	i	0.6	·	110.0	-8.2	·	·
Cc1ccc(S(=O)(=O)Nc2ccc3nc(C)sc3c2)cc1	i	0.85	-0.5	182.1	3.1	-41.0	104.8
Cn1ccc(NC(=O)Nc2cccc([N+](=O)[O-])c2)n1	i	1.03	·	102.7	-2.1	·	·
CC(C)Oc1ccc(CC(=O)NNC(=S)Nc2ccc(Br)cc2)cc1	i	0.95	-1.5	103.8	-8.8	-35.7	64.7
Cc1ccccc1NC(=O)c1cc2c(C)nc3ccccc3c2o1	i	0.71	·	107.2	5.7	-100.0	56.6
Cc1ccc(NS(=O)(=O)c2ccc(OCC(=O)NCc3cccnc3)cc2)cc1	i	0.84	0.2	23.3*	0.6	-86.2	53.1
Cc1nn(C)c(C)c1S(=O)(=O)N1CCCC(C(=O)NCC2COc3ccccc3O2)C1 (centres undefined)	i	1.07	-1.4	109.3	9.0	·	·
COc1ccc(-c2csc(N(CC3CCCO3)C(=O)c3cccs3)n2)cc1 (centres undefined)	i	0.94	-2.6	108.5	8.7	30.3	96.6
Cc1ccc(NC(=S)NCc2cccnc2)cc1	i	0.98	-2.0	98.3	-16.1	-3.5	111.2
Cc1cccc(C(=O)Nc2cccc(C(=O)N/N=C/c3ccncc3)c2)c1	i	1	-0.7	101.6	0.6	56.2	97.9
CCOC(=O)c1c([N+](=O)[O-])c(C)[nH]c(=O)c1C#N	i	1	·	100.6	·	·	·
O=C(N[C@@H](Cc1ccccc1)C(=O)OCc1ccccc1)c1nc[nH]c1C(=O)NCc1ccccc1	i	0.79	·	102.9	-2.8	·	·
O=[N+]([O-])c1cc(S(=O)(=O)N2CCCCC2)ccc1NCCN1CCOCC1	i	0.88	·	107.6	1.4	25.0	105.9
CCOC(=O)c1cc(NC(=O)N2CCCc3ccccc32)c(C)nc1C	i	0.96	0.4	104.7	1.6	·	·
CCOC(=O)CNC(=O)/C(=C\c1ccc(F)cc1)NC(=O)c1ccccc1	i	1.02	·	93.5	-12.9	50.0	91.5
Cc1cc(C)c2c(=O)cc(C(F)(F)F)oc2n1	i	0.99	·	106.6	-3.5	·	·
CCC1(C)Cc2c(C#N)c(N)n(N)c(=S)c2CO1 (centres undefined)	i	0.91	-1.6	98.2	-3.6	23.8	103.7
C/C(=N\Nc1nc(C)c(C)s1)c1ccc([N+](=O)[O-])cc1	i	0.82	·	111.1	0.0	-77.8	76.2
S=C(NCc1ccncc1)Nc1cccc(Cl)c1	i	0.96	0.2	105.8	-4.9	15.6	132.8
COCCCn1c2nc3ccccc3nc2c2c(=O)n(Cc3cccs3)cnc21	·	·	-2.0	96.5	-0.9	-59.5	58.7
CC(=O)Nc1ccc(OCC(=O)N(CC(C)C)C2CCS(=O)(=O)C2)cc1 (centres undefined)	i	0.97	·	98.2	-6.1	·	·
CCc1cccc(NC(=O)c2ccc(NS(=O)(=O)c3c(C)noc3C)cc2)c1	i	1.01	-2.6	100.8	8.8	·	·
CCN(C(=O)c1cc2c(=O)[nH]c3ccc(C)cc3c2s1)c1cccc(C)c1	i	0.81	·	101.1	·	·	·
C=CCNC(=O)CCCCCNS(=O)(=O)c1ccc(OC)cc1	i	1.06	-2.2	117.1	-11.1	·	·
COc1ccccc1N(CC(=O)N/N=C/c1ccc(OCC(=O)NCc2ccco2)cc1)S(=O)(=O)c1ccc(C)cc1	i	0.98	-1.9	102.6	1.0	-11.4	89.5
CCOC(=O)N1CCN(S(=O)(=O)c2ccc(OCC(=O)OC)c(Cl)c2)CC1	·	·	-1.4	104.4	-8.9	2.9	120.8
CCCc1c(C)[nH]c2ccccc2c1=O	i	1.05	-1.2	89.5	-1.0	71.0*	122.0*
COc1ccc(CN(C(=O)/C=C/C(=O)c2ccc(OC)cc2O)C(C(=O)NC2CCCCC2)c2ccncc2)cc1 (centres undefined)	i	0.96	-0.2	100.0	-0.5	-52.0	99.7
Cc1cc(C)n(C(=O)CN2C(=O)CCC2=O)n1	i	0.88	-2.1	105.2	3.5	·	·
O=C(Oc1cccc(Nc2ncnc3ccccc23)c1)c1cccnc1	i	0.93	·	58.3	-3.1	34.8	30.4
COc1ccc(CN2CCN(CCc3ccccc3)C(CCO)C2)c(O)c1 (centres undefined)	i	0.9	·	104.8	-7.4	·	·
CN(C)N1C(N)=C(C#N)C(c2cccs2)C2=C1CCCC2=O (centres undefined)	i	1.01	·	100.4	-1.4	15.4	139.0
O=C(COC(=O)CC(c1ccccc1)c1ccccc1)Nc1ccc(F)c(F)c1	i	0.9	·	108.7	6.4	17.6	142.0
COc1ccc(CN=Cc2c(O)[nH]c3ccccc23)cc1	i	0.94	·	104.3	-9.1	-83.3	92.5
COc1ccc2c(c1)c(C(=O)OCCN(C)C)c(C)n2C	i	0.98	-1.3	95.8	15.7	·	·
N#CCSc1nnc2sc3ccccc3n12	i	1.04	0.7	101.3	1.7	·	·
CCOC(=O)c1sc(NC(=S)NC(=O)C2CCCC2)cc1C	i	1.03	0.4	103.6	-9.5	·	·
O=C(NC1CCCC1)C(c1ccc(F)cc1)N(Cc1ccc(F)cc1)C(=O)c1ccn[nH]1 (centres undefined)	i	0.52	-3.6	94.1	3.3	·	·
CC[N+]1(CC)CC2=Cc3c(ccc4ccccc34)C(C)C2C1 (centres undefined)	i	0.95	·	97.7	·	·	·
O=C1CSC(c2cccc(Cl)c2Cl)N1c1ccccn1 (centres undefined)	i	1.05	-1.0	100.8	3.0	-3.5	63.7
Cc1nnc(SCc2ccc(F)cc2Cl)s1	i	0.96	-1.2	103.2	-9.8	20.6	85.7

New compounds follow.
SMILES	HSV replic up	HSV replic up primary fold	GALR2 agonist	RGS16-Gao HTS	PKD1 inh	INS promoter inh	INS promoter inh cell count
COc1cc(OC)cc(C(=O)Nn2c(C)nc3ccccc3c2=O)c1	·	·	-1.7	94.2	-21.6	·	·
CCOC(=O)C1C(=O)NC(N2CCCCC2)=NC1c1ccco1 (centres undefined)	i	0.93	-3.8	103.4	-2.4	27.3	121.5
CCn1cc(CN(C)S(=O)(=O)c2cccc([N+](=O)[O-])c2)cn1	i	0.98	·	96.8	-3.8	·	·
CC(C)Sc1nnc(NC(=O)c2ccco2)s1	i	1.01	·	104.6	-1.3	33.3	133.0
Cc1cccnc1NCC(O)COc1ccccc1 (centres undefined)	i	0.84	-2.4	102.7	-10.1	34.2	183.1
CSc1ccccc1NC(=O)CN(C)Cc1cc(=O)n2ccsc2n1	i	0.98	·	96.0	3.7	18.8	136.0
N#Cc1cc([N+](=O)[O-])ccc1NCCc1ccccn1	i	1.02	·	95.1	-6.8	·	·
Cc1cc(NC(=O)c2ccccc2[N+](=O)[O-])ccc1Br	i	0.98	·	99.2	-8.1	·	·
CCOC(=O)c1c(CSc2ccccc2)oc2ccc(O)cc12	i	0.94	0.0	104.7	-9.2	-48.1	99.1
CCN(CC)C(=O)C1CC(c2ccc(OC)cc2)=NO1 (centres undefined)	i	0.94	-3.0	101.8	-3.1	-18.2	58.9
Cc1cc(=O)n2[nH]c(NCc3ccccc3F)nc2n1	i	0.92	·	106.5	-5.5	0.0	116.7
COCCCNC(=O)CC(NS(=O)(=O)c1ccc(C)cc1)c1ccc(OC)cc1 (centres undefined)	i	0.9	-2.5	104.4	-10.5	9.7	123.3

Two entries from above, as comma-separated lines.
structure,HSV replic up,HSV replic up primary fold,GALR2 agonist,RGS16-Gao HTS,PKD1 inh,INS promoter inh,INS promoter inh cell count
CSc1ccccc1NC(=O)CN(C)Cc1cc(=O)n2ccsc2n1,i,0.98,·,96.0,3.7,18.8,136.0
N#Cc1cc([N+](=O)[O-])ccc1NCCc1ccccn1,i,1.02,·,95.1,-6.8,·,·

Other structures follow:
SMILES	HSV replic up	HSV replic up primary fold	GALR2 agonist	RGS16-Gao HTS	PKD1 inh	INS promoter inh	INS promoter inh cell count
N#CC1=C(Nc2ccc(Br)cc2)CCC1	i	0.88	-0.8	106.1	3.7	·	·
COc1ccc(-c2nc3nc(C)cc(C)n3n2)cc1	i	0.75	-1.1	104.8	-2.2	-48.6	82.5
COc1ccccc1NC(=O)CCc1nc(-c2ccccc2F)no1	i	0.99	·	98.1	-13.6	-305.3	71.2
COc1ccc(-c2csc3nc(C)nc(N4CCN(c5ccc(C(C)=O)cc5)CC4)c23)cc1OC	i	0.98	·	99.8	3.7	-28.6	103.2
O=C(NCc1nc2ccccc2[nH]1)C1=C[C@H](c2ccc3c(c2)OCO3)C[C@H](OCc2ccc(CO)cc2)O1	i	0.91	·	92.3	9.8	·	·
COc1ccc(CCNc2ccc(S(=O)(=O)N3CCCC3)cc2[N+](=O)[O-])cc1	i	0.83	-1.9	119.5	0.8	10.0	92.5
C=CCNC(=S)N/N=C/c1ccc(-c2ccc(OC)cc2)o1	i	1.01	·	98.1	0.6	-14.3	61.4
O=C(Cc1cccs1)N/N=C\c1ccc(O)cc1	i	0.91	·	99.4	-2.0	29.4	78.2
O=C(OCC(=O)N1c2ccccc2Sc2ccccc21)C1CC(=O)N(Cc2ccco2)C1 (centres undefined)	i	0.85	-1.6	103.5	-5.8	-6.1	82.4

GALR2 agonist, what is marked active above.
compound	HSV replic up primary fold	GALR2 agonist	RGS16-Gao HTS	PKD1 inh
Cc1ccc(CNC(=O)c2ccc3nc4[nH]c5ccccc5c4nc3c2)cc1	0.58	13.9*	102.0	7.2
